Screening data deposited in PubChem by Broad Institute.
AF4-AF9 inh = MLL-AF4/AF9 protein interaction inhibition. AID 651704. inhibition, % at 10 µM. P42568. AlphaScreen, biotin-AF4 peptide binding to FLAG-AF9. 350,000 tested, 0.47% active;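 active = every replicate reaching a set inhibition limit, whatever the replicate mean, cut at about 25% in these data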;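 note: 0% = plate neutral control median and 100% = total signal loss; the record names both 10 and 1 µM as test concentration; the first replicate is given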
Target sequence (P42568 whole entry, looked up): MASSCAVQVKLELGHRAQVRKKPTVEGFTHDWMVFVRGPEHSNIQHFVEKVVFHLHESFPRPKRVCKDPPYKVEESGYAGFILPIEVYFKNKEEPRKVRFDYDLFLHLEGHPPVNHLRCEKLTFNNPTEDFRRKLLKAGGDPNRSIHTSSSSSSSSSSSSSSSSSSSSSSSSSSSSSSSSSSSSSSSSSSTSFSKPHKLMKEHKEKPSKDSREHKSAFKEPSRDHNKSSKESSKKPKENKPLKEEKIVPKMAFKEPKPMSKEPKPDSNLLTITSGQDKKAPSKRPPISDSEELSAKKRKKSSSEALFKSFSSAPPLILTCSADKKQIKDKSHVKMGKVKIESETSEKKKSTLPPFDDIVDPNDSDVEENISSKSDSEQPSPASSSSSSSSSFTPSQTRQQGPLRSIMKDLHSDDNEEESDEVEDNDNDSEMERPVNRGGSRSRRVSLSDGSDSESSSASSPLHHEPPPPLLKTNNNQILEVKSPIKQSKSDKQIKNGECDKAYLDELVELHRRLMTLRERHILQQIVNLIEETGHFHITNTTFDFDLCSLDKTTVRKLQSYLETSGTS
rRNA inh HTS = selective bacterial rRNA inhibition in E. coli | E. coli WT GFP vs humanized-ribosome RFP mutants, fluorescence, 24 h; stronger effect = lower value; DMSO median 0, no signal -100 | GFP signal change (wild-type ribosome), % (no concentration beside the values) | 350,000 tested, 1.6% active | AID 720706;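 active = significant combined selectivity score with lowered wild-type GFP, culture density cut under 30%, mutant RFP and density less affected; inactive = any of these conditions unmet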; note: one replicate is shown; some compounds called inactive have numbers as strong as hits
rRNA inh HTS OD600 = recorded beside rRNA inh HTS, whose call it bears; OD600 change, %; measured here: OD600 growth;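 optical density of the mix in the first replicate; 0 = DMSO median and -100 = no signal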
rRNA inh HTS RFP = further read-out of rRNA inh HTS, marked with its call; RFP signal change, %; measured here: RFP humanized mutant strains;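 first replicate; 0 = DMSO median and -100 = no signal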
An asterisk follows results filed as active; & = joins results of further samples. The list is partial; rates above refer to the full screens.

SMILES	AF4-AF9 inh	rRNA inh HTS	rRNA inh HTS OD600	rRNA inh HTS RFP
COc1cccc(CNC(=O)[C@@H]2CCCN2C(=O)[C@H]2CCCCN2)c1	-9.7	3.8	11.2	0.5
CCCNC(=O)N1C[C@H](O)COC[C@@H]2O[C@H](CC(=O)OC)CC[C@H]21	-4.9	3.8	-9.9	-4.7
CCCC(=O)Nc1ccc2c(c1)OC[C@H](C)N(C)C[C@H](C)[C@@H](OC)CN(C)C2=O	-3.8	-0.4	1.7	-2.2
CN(C)CC(=O)N[C@H]1CC[C@@H](CC(=O)NCc2ccccc2F)O[C@@H]1CO	-2.4	1.3	0.4	-0.9
Cc1noc(C)c1NC(=O)Nc1ccc2c(c1)C(=O)N([C@H](C)CO)C[C@H](C)[C@H](CN(C)Cc1ccc(Cl)c(Cl)c1)O2	-2.1	-5.8	-12.2	0.7
C[C@H](NC(=O)[C@H]1[C@H](CO)[C@H]2Cn3c(ccc(C4=CCCC4)c3=O)[C@H]2N1C)c1ccccc1	0.5	-2.3	-4.0	1.8
CC(C)NC(=O)N(C)C[C@H]1OCCCC[C@@H](C)Oc2ccc(NC(=O)CCC(F)(F)F)cc2C(=O)N([C@H](C)CO)C[C@H]1C	-3.8	3.5	1.4	-1.3
CCN1[C@@H]2c3ccc(-c4ccc(OC)cc4)c(=O)n3C[C@H]1[C@H](CO)[C@H]2C(=O)NCC1CC1	-15.8	2.2	-1.0	-6.5
O=C(C[C@@H]1C=C[C@@H](NC(=O)c2ccccc2)[C@H](CO)O1)Nc1ccc(-c2ccccc2)cc1	-1.2	-5.2	-9.1	-1.7
COc1ccc(C#Cc2ccc3c(c2)[C@@H]2[C@@H](CCN2C(=O)C2CCCC2)[C@@H](CO)N3)cc1	5.7	-0.8	14.9	0.1
O=C(C[C@@H]1CC[C@H](NS(=O)(=O)c2ccc(F)cc2)[C@H](CO)O1)NCCc1ccncc1	-3.7	-1.5	-2.2	2.7
CO[C@H]1CN(C)C(=O)c2ccc(NS(=O)(=O)c3cn(C)cn3)cc2OC[C@@H](C)N(CC2CC2)C[C@@H]1C	-2.2	1.9	5.8	-2.5
C[C@@H]1CN([C@H](C)CO)C(=O)c2cc(NS(=O)(=O)c3cn(C)cn3)ccc2O[C@@H](C)CCCCO[C@@H]1CN(C)C(=O)c1ccncc1	-3.5	4.2	6.0	1.1
COc1ccc2c3c([nH]c2c1)[C@H](CO)N(C(=O)C1CC1)CC31CN(Cc2cccc(F)c2)C1	15.1	-1.0	-16.6	4.2
COc1ccc(NC(=O)N[C@@H]2CC[C@@H](CC(=O)NC3CCCCC3)O[C@@H]2CO)cc1	-0.9	0.4	5.2	0.1
C[C@H]1CN([C@@H](C)CO)S(=O)(=O)c2ccc(-c3ccc(C#N)cc3)cc2O[C@@H]1CN(C)C(=O)Nc1cc(F)ccc1F	-17.5	-3.1	-17.1	0.0
CO[C@@H]1CN(C)C(=O)c2cc(NS(C)(=O)=O)ccc2OC[C@@H](C)N(CC2CCCCC2)C[C@@H]1C	-3.1	1.4	5.1	-2.6
C[C@@H]1CCCCO[C@H](CN(C)C(=O)NC2CCCCC2)[C@H](C)CN([C@@H](C)CO)C(=O)c2cc(NC(=O)C3CCCCC3)ccc2O1	-1.9	-5.1	-0.5	-3.1
CO[C@@H]1CN(C)C(=O)c2ccc(NC(=O)NC(C)C)cc2OC[C@H](C)N(C(=O)CN(C)C)C[C@H]1C	-0.8	2.0	-1.9	-3.5
CCCNC(=O)N1[C@H](CO)[C@H](c2ccccc2)[C@@H]1C#N	-1.6	5.3	8.8	5.8
CO[C@H]1CN(C)C(=O)c2cc(NC(=O)c3ccc4c(c3)OCO4)ccc2OC[C@@H](C)N(CC2CC2)C[C@@H]1C	-3.0	0.8	5.7	2.2
CCC(=O)N1CC2(C1)[C@@H](c1ccc(-c3ccccc3C)cc1)[C@@H](CO)N2C(=O)CC	-2.0	-5.2	1.7	0.0
O=C(C[C@H]1C=C[C@@H](NC(=O)c2ccc(F)cc2)[C@@H](CO)O1)NCCc1ccncc1	-1.2	4.8	3.0	-1.9
Cc1nn(C)cc1NC(=O)C[C@H]1CC[C@H]2[C@@H](COc3ccc(NC(=O)Nc4cccc(Cl)c4)cc3C(=O)N2C)O1	2.4	-1.8	-16.4	6.4
Cc1cccc(S(=O)(=O)N2[C@@H]3CNC[C@H]2C3c2ccc(-c3ccncc3)cc2)c1 (some centres not stated)	2.2	-0.9&0.2	10.0&-6.1	0.6&1.1

Brought forward from above: four entries; new compounds follow.
SMILES	AF4-AF9 inh	rRNA inh HTS	rRNA inh HTS OD600	rRNA inh HTS RFP
CCC(=O)N1CC2(C1)[C@@H](c1ccc(-c3ccccc3C)cc1)[C@@H](CO)N2C(=O)CC	-2.0	-5.2	1.7	0.0
O=C(C[C@H]1C=C[C@@H](NC(=O)c2ccc(F)cc2)[C@@H](CO)O1)NCCc1ccncc1	-1.2	4.8	3.0	-1.9
Cc1nn(C)cc1NC(=O)C[C@H]1CC[C@H]2[C@@H](COc3ccc(NC(=O)Nc4cccc(Cl)c4)cc3C(=O)N2C)O1	2.4	-1.8	-16.4	6.4
Cc1cccc(S(=O)(=O)N2[C@@H]3CNC[C@H]2C3c2ccc(-c3ccncc3)cc2)c1 (some centres not stated)	2.2	-0.9&0.2	10.0&-6.1	0.6&1.1
COCC(=O)N1CC2(CCN(Cc3cccnc3)CC2)c2c(n(C)c3cc(OC)ccc23)[C@@H]1CO	-3.9	1.5	6.2	-3.2
O=C1Cn2nnc(-c3ccccc3)c2C2c3ccccc3CCN12 (configuration not stated)	0.0	3.6	-5.9	-7.9
CS(=O)(=O)N1[C@@H]2Cn3c(ccc(-c4ccc(F)cc4)c3=O)[C@H]1[C@@H](C(=O)N1CCOCC1)[C@@H]2CO	0.1	2.4	4.8	1.2
Cc1nc(N2[C@H](CO)[C@H](c3ccccc3)[C@H]2CNCC2CCCCC2)sc1C	8.0	5.2	-40.7	35.0
COc1ccc2c3c(n(C)c2c1)[C@@H](CO)N(S(=O)(=O)c1ccc(C)cc1)CC31CN(C(=O)c2ccccn2)C1	0.7	-4.7	-14.2	-1.4
CN(C)C(=O)c1ccc(-c2ccc([C@@H]3[C@@H](CO)N4C(=O)CN(C(=O)C5CCCCC5)C[C@H]34)cc2)cc1	-1.8	-1.4	17.6	-2.8
C[C@@H]1CN([C@H](C)CO)C(=O)c2cccc(NC(=O)Nc3ccc4c(c3)OCO4)c2O[C@H]1CN(C)Cc1ccc(-c2ccccc2)cc1	5.0	-5.8	2.7	-0.9
Cc1noc(C)c1NC(=O)N(C)C[C@@H]1Oc2c(NC(=O)CCCCCC(=O)Nc3ccccc3N)cccc2C(=O)N([C@H](C)CO)C[C@@H]1C	-0.1	2.4	0.7	0.7
CCC(=O)N1CC2(C1)[C@H](c1ccc(-c3cccc(F)c3)cc1)[C@H](CO)N2CC1CC1	2.1	-3.6	-13.0	5.4
CCNC(=O)C[C@H]1CC[C@@H]2[C@H](COc3ccc(NC(C)=O)cc3C(=O)N2C)O1	-1.2	3.8	0.9	-1.3
COc1ccc2c3c([nH]c2c1)[C@@H](CO)N(C(=O)Nc1c(C)noc1C)CC31CN(CC2CCCCC2)C1	6.3	-2.3	-0.3	4.3
CN(Cc1ccccc1)C(=O)c1cccc(NC(=O)Cc2ccc(NC(=O)C3CCN(C(=O)C4CCCCC4)CC3)cc2)c1	-12.3	-2.7	-9.3	-3.8
C[C@@H]1CN([C@H](C)CO)C(=O)CCCn2nncc2CO[C@H]1CN(C)S(=O)(=O)c1ccc(-c2ccccc2)cc1	3.4	-5.4	-13.4	6.0
CC(=O)N1CC(=O)N2[C@H](CO)[C@@H](c3ccc(-c4ccc(C)cc4)cc3)[C@H]2C1	-0.8	-1.0	-1.1	-3.1
COC(=O)C[C@@H]1C=C[C@H](NS(=O)(=O)c2ccccc2F)[C@H](CO)O1	-4.0	-0.6	6.3	-1.6
COc1cccc(NC(=O)N(C)C[C@H]2Oc3cc(C#CC4(O)CCCC4)ccc3S(=O)(=O)N([C@@H](C)CO)C[C@@H]2C)c1	-0.3	0.5	10.0	-0.8
Cc1ccc(S(=O)(=O)N[C@H]2CC[C@H](CCNC(=O)Nc3ccc(Cl)cc3)O[C@@H]2CO)cc1	13.4	-2.2&-27.6	-22.2&-49.1	19.8&37.2
COc1ccc(S(=O)(=O)Nc2ccc3c(c2)C(=O)N([C@@H](C)CO)C[C@@H](C)[C@@H](CN(C)Cc2ccncc2)O3)cc1	-1.1	-2.7	-3.0	-1.6
CN1C(=O)c2cc(NS(C)(=O)=O)ccc2OC[C@@H]2O[C@H](CC(=O)N3CCOCC3)CC[C@H]21	0.2	5.1	11.4	-2.2
COc1ccc(CN2CCC(C(=O)NC(c3ccc4c(c3)OCO4)c3ccccn3)CC2)cc1 (configuration not stated)	0.7	13.4	10.4	-12.5
O=C(CN1CCOCC1)NCC[C@@H]1CC[C@@H](NC(=O)Nc2ccc(F)cc2)[C@@H](CO)O1	0.4	0.4	3.2	1.0
C[C@H](CO)N1C[C@H](C)[C@@H](CN(C)Cc2ccncc2)Oc2ccc(NC(=O)CCN3CCOCC3)cc2C1=O	-2.8	-0.4	6.5	-3.0
CCN(C[C@H]1N[C@H](CO)[C@H]1c1ccc(C2=CCCC2)cc1)C(=O)c1cccnc1	3.9	0.2	-7.6	-0.2
COc1ccc2c3c([nH]c2c1)[C@H](CO)N(C(=O)C1CCC1)CC31CN(S(C)(=O)=O)C1	-0.4	-1.6	-7.3	-3.9
CCC(=O)N(C)C[C@H]1Oc2cc(C#Cc3ccncc3)ccc2S(=O)(=O)N([C@H](C)CO)C[C@@H]1C	4.1	-8.2	-8.5	3.7
SMILES	AF4-AF9 inh	rRNA inh HTS	rRNA inh HTS OD600	rRNA inh HTS RFP
O=C(N[C@@H]1CC[C@@H](CCNS(=O)(=O)c2ccc(F)cc2)O[C@@H]1CO)C1CC1	1.3	2.0	6.9	-3.9
CCc1cnc(Nc2nc(C(N)Cc3ccc(Cl)cc3)cs2)nc1 (configuration not stated)	13.3	-61.9	-80.8	-19.8
O=C(NCC[C@@H]1CC[C@@H](NC(=O)C2CCCCC2)[C@H](CO)O1)Nc1ccc(Cl)cc1	12.7	-27.8	-45.5	-3.0
C[C@@H]1CN([C@H](C)CO)C(=O)c2cc(NC(=O)C3CC3)ccc2O[C@@H]1CN(C)Cc1ccc(Oc2ccccc2)cc1	6.8	-4.1	-31.9	11.7
Nc1ncnc2c1ncn2[C@@H]1O[C@H](CNC(=O)[C@@H](N)Cc2ccccc2)[C@@H](O)[C@H]1O	-0.4	16.4	5.3	3.4
C[C@H](CO)N1C[C@H](C)[C@@H](CN(C)C(=O)Nc2cccc3ccccc23)OCc2cnnn2CCCC1=O	0.2	-0.2	2.1	6.7
O=C(Nc1nccs1)[C@@H]1[C@@H](CO)[C@@H]2Cn3c(ccc(-c4cccnc4)c3=O)[C@@H]2N1CC1CC1	-1.7	-2.3	-3.8	-1.7
COc1ccc(S(=O)(=O)Nc2ccc3c(c2)C(=O)N([C@@H](C)CO)C[C@@H](C)[C@H](CN(C)C(=O)c2ccccc2)OCCCC[C@@H](C)O3)cc1	0.2	-18.1	-12.1	-0.7
C[C@@H]1CN([C@H](C)CO)C(=O)c2cc(NC(=O)Nc3ccc(F)cc3)ccc2O[C@H]1CN(C)Cc1ccccc1	-8.6	-6.1	-7.7	3.1
C[C@@H]1CN([C@@H](C)CO)C(=O)c2cccc(NC(=O)Nc3cccc4ccccc34)c2O[C@@H]1CN(C)Cc1ccc2c(c1)OCO2	4.3	-1.2	-3.0	2.6
C[C@@H]1CN([C@H](C)CO)C(=O)c2cc(NC(=O)CCN3CCOCC3)ccc2O[C@@H]1CN(C)Cc1ccc(Cl)c(Cl)c1	0.7	2.5	-4.5	1.3
COc1ccc(-c2cc3nc(NCCOc4ccccc4)ccn3n2)cc1	-3.0	-7.8	-16.3	16.5
Cc1ccc(S(=O)(=O)Nc2cccc3c2O[C@H](CN(C)C(=O)Nc2ccc(F)cc2)[C@@H](C)CN([C@H](C)CO)C3=O)cc1	-6.9	-1.5	-2.2	0.8
C[C@H]1CN([C@@H](C)CO)C(=O)c2cc(NS(=O)(=O)c3ccccc3)ccc2O[C@@H]1CN(C)Cc1ccc(Cl)c(Cl)c1	4.1	-2.0	-21.0	10.9
COCCN(C[C@H]1N[C@H](CO)[C@H]1c1ccc(-c2cccc(F)c2)cc1)C(C)=O	2.5	-1.3	-4.9	0.4
C[C@@H]1CCCCO[C@@H](CN(C)Cc2ccncc2)[C@H](C)CN([C@H](C)CO)C(=O)c2cc(NS(=O)(=O)c3ccccc3)ccc2O1	-0.9	-3.6	3.3	2.7
Cc1ccc(CN2CC(=O)N3[C@H](CO)[C@H](c4ccc(Br)cc4)[C@H]3C2)cc1	3.2	1.0	-1.1	2.8
C[C@@H]1CN([C@H](C)CO)C(=O)c2cc(NS(=O)(=O)c3ccccc3)ccc2O[C@@H](C)CCCCO[C@@H]1CN(C)C(=O)c1ccccc1	4.7	-0.1	0.3	0.5
O=C(NCc1ccccc1)C(c1ccc(C(F)(F)F)cc1)n1c(=O)c(-c2ccco2)nc2ccccc21 (configuration not stated)	-3.8	-0.4	7.8	1.5
CCCC(=O)Nc1ccc2c(c1)OC[C@H](C)N(CCC)C[C@@H](C)[C@@H](OC)CN(C)C2=O	-2.2	0.8	-1.4	-2.7
COc1cccc(C#Cc2ccc([C@H]3[C@@H](CO)N(C(=O)C4CCCCC4)[C@H]3C#N)cc2)c1	6.3	-5.7	-24.6	5.2
